KCNQ2 inh: KCNQ2 potassium channel inhibitors, primary screen, cell-based, CHO-K1, FluxOR thallium flux, B-score (AID 2156); 20 min; hits give low values; only compounds with negative scores are shown here; some inactives read as strong as hits; B-score at 10 µM; actives 1.1% (n = 310,000);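 active means fluorescence ratio B-score at most minus 3 library SDs, with starting brightness B-score within 2 library SDs, cut at about -5.5 in these data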
Target sequence (O88943 whole entry, looked up): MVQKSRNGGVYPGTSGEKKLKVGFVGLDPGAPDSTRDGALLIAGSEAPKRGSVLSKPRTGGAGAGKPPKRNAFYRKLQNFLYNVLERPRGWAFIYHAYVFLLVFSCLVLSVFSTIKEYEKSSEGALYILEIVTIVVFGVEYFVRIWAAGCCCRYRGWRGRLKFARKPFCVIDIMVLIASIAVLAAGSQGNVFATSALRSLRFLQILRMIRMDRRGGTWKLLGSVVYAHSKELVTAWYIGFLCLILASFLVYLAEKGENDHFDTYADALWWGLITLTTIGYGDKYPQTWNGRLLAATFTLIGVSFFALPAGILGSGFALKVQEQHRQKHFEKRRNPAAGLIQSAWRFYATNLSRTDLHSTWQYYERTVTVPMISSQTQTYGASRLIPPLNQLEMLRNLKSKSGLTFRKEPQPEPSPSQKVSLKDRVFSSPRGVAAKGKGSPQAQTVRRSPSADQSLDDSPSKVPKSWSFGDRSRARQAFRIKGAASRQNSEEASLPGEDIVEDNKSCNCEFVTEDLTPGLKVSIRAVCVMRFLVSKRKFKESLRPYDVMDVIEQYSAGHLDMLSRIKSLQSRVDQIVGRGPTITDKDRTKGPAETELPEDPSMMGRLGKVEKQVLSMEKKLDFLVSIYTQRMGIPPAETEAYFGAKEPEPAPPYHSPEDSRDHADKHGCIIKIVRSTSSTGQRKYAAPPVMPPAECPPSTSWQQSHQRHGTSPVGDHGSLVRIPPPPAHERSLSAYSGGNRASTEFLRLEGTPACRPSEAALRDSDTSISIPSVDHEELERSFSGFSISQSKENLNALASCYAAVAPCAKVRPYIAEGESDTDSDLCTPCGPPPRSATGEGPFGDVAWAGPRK
KCNQ2 inh baseline: second read-out of KCNQ2 inh, no call of its own (marks repeat the call); B-score; measured here: initial fluorescence intensity artifact check;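 brightness before thallium and not channel activity; 0 = typical well and far values either way flag optical interference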
Active calls of the source: *; i = inactive. Some of the compounds tested, so the mix of outcomes need not match the whole.

The line under a structure holds: KCNQ2 inh, KCNQ2 inh baseline
- O=C(CN1CCC(n2nnc3cc(F)ccc32)CC1)NC1CC1
→ i, 0.3
- C/C(=N\NC(=O)CN1CCN(S(=O)(=O)c2ccc(C)cc2)CC1)c1ccncc1
→ i, -0.32
- Cc1cc(C)c(S(=O)(=O)N(C)CC(=O)NCCCn2ccnc2)c(C)c1
→ i, 2.5
- COc1cc(/C=C2/NC(=O)NC2=O)cc(Br)c1OCc1cccc(C(=O)O)c1
→ i, 0.36
- C#CCSc1nc2[nH]ncc2c(=O)[nH]1
→ i, 0.88
- COc1cc(SC)ccc1C(=O)OCC(=O)NC1CC1
→ i, -0.04
- Cc1ccc(C)c(NS(=O)(=O)c2ccccc2C)c1
→ i, -2.6
- Cc1cc(S(=O)(=O)n2cnc3ccccc32)c(C)cc1Cl
→ i, 0.55
- COC(=O)c1scc(C)c1S(=O)(=O)Nc1ccc(C)cc1
→ i, 2.2
- C/C(=N/NC(=O)c1cccc(C)c1)c1c(O)cc(C)oc1=O
→ i, 2.4
- COc1ccc(/C=C/C(=O)Nc2ccc(NC(C)=O)cc2)cc1S(=O)(=O)N1CCOCC1
→ i, -2.5
- CC(C)C(NC(=O)CN(c1cccc(F)c1)S(C)(=O)=O)C(C)C
→ i, 0.22
- COc1ccccc1C(CCNCc1ccccc1)c1ccc(OC(C)C)cc1 (stereo not drawn)
→ i, 2.1
- CN(c1ccccc1C(=O)NCc1ccccc1Cl)S(=O)(=O)c1ccccc1
→ -10*, -3.2*
- CCCS(=O)(=O)N1CCC(C(=O)NCc2cccnc2)CC1
→ i, 0.2
- CCN(CC(=O)Nc1ccc(NC(C)=O)cc1)C(=O)/C=C/c1c(C)nn(-c2ccc(F)cc2)c1C
→ i, 1.6
- Cc1nnc(SCC(=O)N(C(C)C)C(C)C)[nH]c1=O
→ i, -1.2
- Clc1ccc(C2[C@H]3CN(CC4CCCCC4)[C@H](c4ccccc4)C34CC2(c2ccccc2)C4)cn1 (stereo partly drawn)
→ i, 1.2
- CSc1ccc(CN2CCCN(C)CC2)cc1
→ i, -0.97
- O=C(CCl)N1CCN2C(=O)c3ccccc3C12c1ccc(Cl)cc1 (stereo not drawn)
→ i, -1.1
- CCn1c(CNC(=O)c2ccccc2F)cc2ccccc21
→ i, 0.12
- COC(=O)c1c(NC(=O)CCC(=O)O)sc2c1CCCCC2
→ i, 1.4
- CCc1nnc(NC(=O)CCN(c2cc(C)cc(C)c2)S(=O)(=O)c2ccc(Cl)cc2)s1
→ i, -4
- O=C(NCCC1=CCCCC1)c1cc2ccccc2oc1=O
→ i, 0.46
- COC(=O)c1c(NC(=O)CSc2ncnc3ccccc23)sc(C)c1C
→ i, 1.4
- CCn1c(Cc2ccccc2)nnc1SCC(=O)Nc1ccc(C)cc1
→ i, -0.33
- CCCCOC(=O)CSCC(=O)Nc1cc(C)on1
→ i, -0.67
- CC(C)[C@H](NC(=O)[C@H](CCCN=C(N)N)NC(=O)NC(Cc1ccccc1)C(=O)O)C(=O)NC(C=O)CCCN=C(N)N (stereo partly drawn)
→ i, 1.6
- CCN(CC(=O)Nc1ccc(C(C)=O)cc1)CC(=O)Nc1cccc(OC)c1
→ i, 0.08
- C=CCNC(=O)c1cccc(OC2CCN(CC(C)(C)C)CC2)c1
→ i, -0.32

A few values from the entries so far.
KCNQ2 inh baseline, CSc1ccc(CN2CCCN(C)CC2)cc1 stands at -0.97
KCNQ2 inh baseline, CCn1c(Cc2ccccc2)nnc1SCC(=O)Nc1ccc(C)cc1 stands at -0.33

(listing goes on)
The line under a structure holds: KCNQ2 inh, KCNQ2 inh baseline
- CNC(=O)/C=C/c1cc(C(=O)c2ccc(Cl)cc2Cl)cn1C
→ i, 0.11
- O=C(NCCc1ccccc1)N1CCCC(CNS(=O)(=O)Cc2ccccc2)C1 (stereo not drawn)
→ i, 0.86
- Cc1cccc(NS(=O)(=O)c2cc3c4c(c2)CC(=O)N4CCC3)c1C
→ i, -0.79
- O=c1c(-c2ccccc2)c[nH]n1-c1cccc([N+](=O)[O-])c1
→ i, -0.5
- O=C(NC(=S)Nc1cccc2ncccc12)c1ccccc1
→ i, -1.4
- COc1ccc(N2CSC3=C(C#N)C(c4cccc(OC)c4OC)CC(=O)N3C2)cc1 (stereo not drawn)
→ i, 6.7
- NS(=O)(=O)c1cnccc1NCCc1ccccc1
→ i, 0.78
- CCn1c(SCC(=O)N2CCCC2)nc2ccccc2c1=O
→ i, 20
- COc1ccc(S(=O)(=O)Nc2ccccn2)c(C)c1C
→ i, 0.54
- O=C(Nc1nc(-c2ccccc2)cs1)C1COc2ccccc2O1 (stereo not drawn)
→ i, 0.38
- CCC(C)N(C(=O)COc1ccc(NC(C)=O)cc1)C1CCS(=O)(=O)C1 (stereo not drawn)
→ i, 0.39
- COc1ccc(-c2csc(N(CCCN3CCOCC3)C(=O)c3ccco3)n2)cc1
→ i, 0.57
- CSc1ccccc1C(=O)N(C)C(c1ccccc1)c1ccccc1
→ -5.7*, 0.03*
- CCN(CC)CC(=O)N1N=C(c2cccs2)CC1c1ccco1 (stereo not drawn)
→ i, 1.1
- CN(C(=O)c1ccccc1)c1ccc(OCC(=O)NC2CCS(=O)(=O)C2)cc1 (stereo not drawn)
→ i, 0.36

Part of the list above in order of SMILES length, descending.
The line under a structure holds: KCNQ2 inh, KCNQ2 inh baseline
- COc1ccc(-c2csc(N(CCCN3CCOCC3)C(=O)c3ccco3)n2)cc1
→ i, 0.57
- O=c1c(-c2ccccc2)c[nH]n1-c1cccc([N+](=O)[O-])c1
→ i, -0.5
- CSc1ccccc1C(=O)N(C)C(c1ccccc1)c1ccccc1
→ -5.7*, 0.03*

Remaining list, next part
The line under a structure holds: KCNQ2 inh, KCNQ2 inh baseline
- CCc1ccc(/C=N/NC(=O)C(=O)NCCCN2CCOCC2)cc1
→ i, 2.5
- Cc1cc(C)nc(SCC(=O)c2ccc(F)c(C)c2)n1
→ i, -1.1
- CCc1nn(C(C)C(=O)NC(C)CCc2ccco2)c(=O)c2cc3occc3n12 (stereo not drawn)
→ i, -0.05
- O=[N+]([O-])c1ccc(/C=N/Nc2nc(N3CCCCCC3)nc(N3CCCCCC3)n2)o1
→ i, -0.21
- Cc1ccccc1OCC(=O)OCC(=O)c1ccc(-c2ccccc2)cc1
→ i, 1.3
- Cc1ccc(S(=O)(=O)N(C)C)cc1NC(=O)COc1ccccc1C(=O)Nc1ccccc1
→ i, 0.58
- O=S(=O)(c1ccccc1)N1CCC(c2ccccc2)CC1
→ i, -1.1
- COCC(=O)N1CCN(c2cccc(C(F)(F)F)c2)CC1
→ i, -0.85
- O=S(=O)(NCCOCC(F)(F)F)c1ccc2oc3ccccc3c2c1
→ i, 0.18
- CCOc1ccc(CCNC(=O)COC(=O)/C=C/c2ccccc2)cc1OCC
→ i, 0.87
- COC(=O)c1ccc(COc2ccc(/C=C/C(=O)c3ccc(OC)c(CSCC(=O)O)c3)cc2OC)cc1
→ i, -1.2
- O=C(CN1CCCCCC1)Nc1ccc(Br)cn1
→ i, 2.4
- COc1ccccc1OCCC(=O)OCC(=O)Nc1ncc(Cl)cc1Cl
→ i, 0.87
- Cc1ccccc1C(=O)NC(=S)NCC1CCCO1 (stereo not drawn)
→ i, -0.89
- Cc1sc2nc(SCC(=O)NCc3ccco3)n(Cc3ccccc3)c(=O)c2c1C
→ i, -2.6
- O=C(NC1CCC(NC(=O)C2CCCO2)CC1)C1CCCO1 (stereo not drawn)
→ i, -0.17
- COc1ccc(CCC(=O)Nc2sc(C(=O)N(C)C)c(C)c2C#N)cc1
→ i, -0.78
- COc1ccc(N2CC(C(=O)Nc3ccccc3C(=O)NCc3ccco3)CC2=O)cc1 (stereo not drawn)
→ i, 1.9
- COc1ccc(-c2csc(NCCc3nc4cc(Cl)c(Cl)cc4n3CCCO)n2)cc1
→ i, -1.1
- Cc1ccc(C2=NN(CC(=O)NCc3cccs3)C(=O)CC2)cc1
→ i, -0.31
- CCC/C(O)=C1\C(=O)CC(c2ccccc2)CC1=NCCc1c(C)[nH]c2ccccc12 (stereo not drawn)
→ i, -2.2
- Cc1cc(=O)[nH]c(SCc2cccc(Br)c2)n1
→ i, 0.79
- Cc1cccc(C(=O)NCC(c2cccs2)N2CCOCC2)c1 (stereo not drawn)
→ i, -0.68
- COc1cc2c(cc1OC)C(COc1ccc([N+](=O)[O-])cc1)N(C(C)=O)CC2 (stereo not drawn)
→ i, -2.4
- Cc1ccc(C(=O)Nc2ccc3ccccc3c2)cc1
→ i, 1.5
- COc1ccc(Cn2ccnc2)cc1[N+](=O)[O-]
→ i, -0.06
- CCC(=O)NC1(Cc2ccc(O)cc2)CCCCC1
→ i, 0.31
- Cc1cc(S(=O)(=O)N2CCOCC2)ccc1OCC(=O)Nc1ccccc1C(F)(F)F
→ i, 0.19
- COCC(C)NC(=O)COc1ccc(Cl)cc1Cl (stereo not drawn)
→ i, 2.8
- Cc1c(C(=O)Nc2ccccc2-c2ccccc2)cccc1[N+](=O)[O-]
→ i, 1.6
- Cc1ccc(CSc2nc3c(c(=O)[nH]2)C(c2ccncc2)C2=C(CCCC2=O)N3)cc1 (stereo not drawn)
→ i, 1.2
- CCCCNc1nnc(SCC(=O)N2CCN(S(=O)(=O)c3ccc4ccccc4c3)CC2)s1
→ i, 0.07
- CCOC(=O)N1CCN(C(=O)CCCCn2c(=S)[nH]c3ccsc3c2=O)CC1
→ i, 1.3
- CC(C)Cn1c(=O)[nH]c(=O)c2c(C(F)(F)F)cc(-c3ccccc3)nc21
→ i, 0.2
- COC(=O)C1=C(C)N(Cc2ccccc2)C(=O)N[C@H]1c1ccco1
→ i, 1.4
- CN(C)c1ccc(C(CNC(=O)c2ccccc2Br)c2c[nH]c3ccccc23)cc1 (stereo not drawn)
→ i, 0.14
- CCOC(=O)CN1C(=O)C(=O)N(Cc2cccc(C)c2)C1=O
→ i, 1.3
- CC(C)Cn1c(SCC(=O)c2ccc(Cl)s2)nnc1-c1ccco1
→ -6.8*, -2*
- Cc1ccc(NC(=O)Cc2c(O)c3ccccc3[nH]c2=O)c(C)c1
→ i, 0.3
- COc1ccc(-c2nn(-c3ccccc3)cc2N)cc1
→ i, 1.1
- Cc1ccccc1Cn1cnc2c(cnn2C(C)(C)C)c1=O
→ i, -2.8
- CCCCNC(=O)/C(=C\c1ccc([N+](=O)[O-])o1)NC(=O)c1ccccc1
→ i, 0.24
- O=C(CN1CCC(C(=O)c2ccc3c(c2)OCCO3)CC1)Nc1ccccc1F
→ i, -1.2
- CN(CC(=O)N1CCCc2c1c(=O)oc1ccc(O)cc21)Cc1ccccc1
→ i, 2.2
- COc1cc(NC(=O)COc2ccccc2[N+](=O)[O-])ccc1NC(=O)c1cccs1
→ i, -1.8
- O=C(CSc1nnc(C2CCCCC2)n1-c1ccccc1)NCc1ccco1
→ -5.6*, -0.35*
- C/C(=N\NC(=O)c1nnn(-c2nonc2N)c1-c1ccc2c(c1)OCO2)c1cccs1
→ i, 1.7
- COc1ccc(CN2CCCCCC2)cc1Br
→ i, 0.18
- CCN(Cc1ccncc1)S(=O)(=O)c1ccc(C(C)=O)cc1
→ i, 0.17
- CCN(CC)S(=O)(=O)c1ccc(N2CCCC2)c(NC(=O)Cc2ccc(OC)cc2)c1
→ i, -2.6
- CCc1nnc(NS(=O)(=O)c2ccc(NC(=O)c3ccc(C#N)cc3)cc2)s1
→ i, 0.06
- Cc1ccc(N2CC(C(=O)N3CCN(c4ccccc4)CC3)CC2=O)cc1 (stereo not drawn)
→ i, 0.96
- COc1cc2c(cc1NC(=O)c1ccc3c(c1)OCO3)oc1ccccc12
→ i, 0.63
- CC1CCN(S(=O)(=O)c2cccc3cccnc23)CC1
→ i, 0.02
- O=C(Nc1cccc(-c2cn3c(n2)SCC3)c1)c1ccc(Br)o1
→ i, 0.06
- CC(NS(=O)(=O)c1ccccc1)C(=O)NCc1ccco1 (stereo not drawn)
→ i, 0.44
- O=C1c2ccccc2C(=O)N1C(CO)C(O)c1ccc([N+](=O)[O-])cc1 (stereo not drawn)
→ i, 2.8
- Cc1ccc(CS(=O)(=O)c2ccc(C(=O)N3CCN(c4ccccn4)CC3)cc2[N+](=O)[O-])cc1
→ i, -0.64
- COc1ccccc1CN1CC(C(=O)NCCc2ccc(C)o2)CCC1=O (stereo not drawn)
→ i, -0.8
- CCOC(=O)CCCSc1nc2sc(C)c(C)c2c(=O)[nH]1
→ i, -0.61

(further entries)
The line under a structure holds: KCNQ2 inh, KCNQ2 inh baseline
- Oc1ccc(-c2csc(Nc3cccc4ccccc34)n2)cc1O
→ i, 0.48
- O=C(CNCc1ccccc1)Nc1ccc(Cl)cc1
→ i, 0.24
- O=[N+]([O-])c1ccc(Sc2cccc3cccnc23)c([N+](=O)[O-])c1
→ i, -0.77
- COc1ccc(S(=O)(=O)N2CCCC2C(=O)n2nc(C)cc2C)cc1 (stereo not drawn)
→ i, 0.6
- COc1ccc(NS(=O)(=O)c2cc(NC(=O)c3ccccc3F)ccc2N2CCCC2)cc1
→ i, 0.01
- Cc1cc(SCC(=O)c2ccccc2)nc(=O)[nH]1
→ i, 0.2
- Cc1ccc2cc(C#N)c(N3CCCN(S(=O)(=O)c4ccc(F)cc4)CC3)nc2c1
→ i, -1.9
- c1ccc(Cc2nnc3sc(-c4ccc5c(c4)OCO5)nn23)cc1
→ i, 0.02
- CC1(C)OC(C)(C)/C(=C\c2ccccc2[N+](=O)[O-])C1=O
→ i, -0.13
- COc1ccccc1NC(=O)c1ccc2c(c1)N(CC(=O)NC(C)(C)C)C(=O)C(C)(C)O2
→ i, 1.7
- O=c1[nH]c(CSc2nnc(Nc3ccccc3)s2)nc2ccccc12
→ i, 1.4
- CC1CCCCC1NC(=O)CN1CCC(O)(c2ccc3c(c2)OCO3)CC1 (stereo not drawn)
→ i, -0.25
- COc1ccccc1N(CC(=O)NCCSc1ccccn1)S(=O)(=O)c1ccccc1
→ i, -0.06

Full records as entered above. Values in the order: KCNQ2 inh | KCNQ2 inh baseline
O=C(CNCc1ccccc1)Nc1ccc(Cl)cc1 is entered as i | 0.24
O=[N+]([O-])c1ccc(Sc2cccc3cccnc23)c([N+](=O)[O-])c1 is entered as i | -0.77
COc1ccc(S(=O)(=O)N2CCCC2C(=O)n2nc(C)cc2C)cc1 (stereo not drawn) is entered as i | 0.6

High-throughput results (PubChem BioAssay)
